Mtb growth: Mycobacterium tuberculosis H37Rv growth inhibition, cell based, confirmatory dose response (AID 1949); inhibition, % at 10 µg/mL, or IC50 in µg/mL where a hit was titrated; most inactive calls were filed without a number and no value below 0 was filed; 100,000 tested, 1.6% active;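 active = confirmed in a dose series; inconclusive = about 50% or more but not retested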;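 also: bacteria grown 7 days with compound before Alamar blue readout; 0% = untreated bacteria and 100% = reference antibiotic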
* = called active by the depositor; i = inactive; ? = inconclusive.

SMILES | Mtb growth
Cc1cc(C)n2nc(NCc3cccs3)nc2n1 | i
Cc1c(NC(=O)CSc2nnc(-c3ccc4ccccc4n3)s2)c(=O)n(-c2ccccc2)n1C | i
Cn1cc(C(=O)Cc2ccccc2)c2ccccc21 | i
O=C(CSCc1ccccc1)Nc1cccc(F)c1 | 11.2%
CCOC(=O)c1c(NC(=O)c2cccs2)sc(C(=O)Nc2cccc(OC)c2)c1C | i
O=C(CSc1nnc(COc2ccccc2)n1-c1ccccc1)Nc1ccc2c(c1)OCO2 | i
CSc1ccc(S(=O)(=O)Nc2ccc(S(=O)(=O)N3CCCC3)cc2)cc1 | i
Cc1ccc(-n2ncc3c(NCCCN4CCOCC4)ncnc32)c(C)c1 | i
O=C(O)c1ccc(CNCc2ccccc2Cl)cc1 | i
O=C(CSCc1ccc([N+](=O)[O-])cc1)Nc1ccccc1Sc1ccccc1 | 1.9%
CC(=O)Nc1ccc(NC(=O)CN(c2ccccc2Br)S(C)(=O)=O)cc1 | i
CC(C)(C)NC(=O)Cn1c(=O)oc2ccccc21 | i
CC1CCc2sc3ncnc(N4CCN(S(=O)(=O)c5ccc(Cl)c(Cl)c5)CC4)c3c2C1 (centres undefined) | 5.1%
CC(C)(C)OC(=O)Nc1ccc(Br)cc1C(=O)O | 1.2%
COc1cc2ccccc2cc1C(=O)Nc1cc(-c2nn3c(C)nnc3s2)ccc1C | 2.1%
O=C1C2CC=C(Cl)CC2C(=O)N1n1cnnc1 (centres undefined) | i
COc1ccc(CCNc2ccncn2)cc1 | i
O=C(NC(=S)Nc1nc(-c2cccc([N+](=O)[O-])c2)cs1)c1ccc(-c2ccccc2)cc1 | 3.0%
COc1ccc(NC(=O)CN(c2cccc(Cl)c2)S(=O)(=O)c2ccccc2)c(OC)c1 | i
COC(=O)c1sc(NC(=O)c2csc(C)c2)nc1C | 0.2%

Another view of part of the listing above:
| structure | Mtb growth |
| --- | --- |
| O=C1C2CC=C(Cl)CC2C(=O)N1n1cnnc1 (centres undefined) | i |
| O=C(NC(=S)Nc1nc(-c2cccc([N+](=O)[O-])c2)cs1)c1ccc(-c2ccccc2)cc1 | 3.0% |
| CC(=O)Nc1ccc(NC(=O)CN(c2ccccc2Br)S(C)(=O)=O)cc1 | i |

Further compounds follow.
SMILES | Mtb growth
COc1ccc(OCC(=O)Nc2ccccc2C(=O)NC(C)c2ccccc2)cc1 (centres undefined) | i
Cc1cc(O)cc2ncc([N+](=O)[O-])cc12 | i
Cc1ccc(-c2nc3ccccc3c(=O)n2CCCn2ccnc2)cc1 | i
O=S(=O)(NCCCc1ccccc1)c1ccc(F)cc1 | 7.9%
CC(C)N1CC(C(=O)Nc2nc3ccccc3s2)CC1=O (centres undefined) | i
C=CCNS(=O)(=O)c1ccc(OCC(=O)OC)cc1 | 3.1%
COc1ccccc1-n1c(-c2ccncc2)n[nH]c1=S | i
COc1ccc(CNC(=S)Nc2cc(OC)c(Cl)cc2OC)cc1 | i
CN(CC(=O)Nc1c(F)cccc1F)S(=O)(=O)c1ccc(Cl)cc1 | 2.3%
Cc1cc(C)nc(/N=C(/N)Nc2cc(Oc3ccccc3)ccc2Cl)n1 | 4.87µg/mL*
Nc1nonc1C(=O)NCCNCc1cccs1 | 0.7%
Cc1cc(/C=C(/C#N)c2cccc(F)c2)c(C)n1-c1ccc(S(N)(=O)=O)cc1 | 25.6%
CCOc1ccccc1NC(=O)Nc1ccc(F)c(F)c1 | i
Cc1cc(Cl)c(OCCCOc2ncnc3ccccc23)c(Cl)c1 | i
Cc1occc1C(=O)Nc1cccc([N+](=O)[O-])c1C | 0.5%
COC(=O)c1sccc1NC(=O)c1cccc(OC)c1 | i
COc1ccccc1-c1cc(C(F)(F)F)n2ncc(C(=O)O)c2n1 | i
O=C(CSc1nnc(-c2ccc(Br)cc2)o1)Nc1cccc2ccccc12 | i
Cc1ccc(NC(=O)Cn2cc([N+](=O)[O-])cn2)cc1Cl | ?
O=C(NCCc1ccccc1)C1CCCN(S(=O)(=O)c2ccc(Cl)cc2)C1 (centres undefined) | i
CC1(C)Cc2c(c(N3CCOCC3)nc3sc4c(=O)n(-c5ccc(Cl)c(Cl)c5)cnc4c23)CO1 | i
O=C(c1ccc2c(=O)n(CCC3=CCCCC3)c(=S)[nH]c2c1)N1CCCCC1 | 1.3%
Cc1ccc(NC(=O)CSc2nnc(-c3ccccc3Cl)n2C)cc1C | i
Cc1cc([N+](=O)[O-])cc2c1NC(c1ccc(F)cc1)C1CC=CC21 (centres undefined) | 0.2%
O=C(Nc1ccc(Cl)cc1C(=O)NCC1CCCO1)c1ccc(Cl)cc1Cl (centres undefined) | 1.6%
CC(C)c1ccc(NC(=O)c2ccccc2SCc2ccccc2)cc1 | i
COc1ccc(CCNC(=O)c2cc(Br)ccc2Cl)cc1 | 4.1%
COc1ccccc1N1CCN(C(=O)CN(C2CCCCC2)S(C)(=O)=O)CC1 | i
Cc1c(O)ccc(C(=O)CN2C(=O)c3ccccc3C2=O)c1O | ?
CCCC(=O)Nc1nc2ccc(S(N)(=O)=O)cc2s1 | i
COCc1nnc(NC(=O)CCN2C(=O)c3ccccc3C2=O)s1 | i
COc1cc(OC)cc(C(=O)Nc2ccc(S(=O)(=O)Nc3cc(OC)ccc3OC)cc2)c1 | i
OCc1c(OCc2ccccc2F)ccc2ccccc12 | 11.3%
COc1ccccc1NC(=O)c1c(NC(=O)c2cc(C)on2)sc(C)c1C | i
CC1CCN(c2ccccc2NC(=S)NC(=O)C(C)(C)C)CC1 | 35.1%
Cc1ccc(NC(=O)CCSc2nc3sc4c(c3c(=O)n2-c2ccccc2)CCC4)cc1 | 28.4%
CC(=O)Oc1ccc2c(=O)c(Oc3ccc(Cl)cc3)coc2c1 | 0.9%
Cc1ccccc1CSCCNC(=O)c1ccc(CN(c2ccccc2)S(C)(=O)=O)cc1 | i
CCCCN1C(=O)NC(NC(=O)c2ccco2)(C(F)(F)F)C1=O (centres undefined) | i
COc1ccc(C(=O)OCC(=O)c2ccccc2Cl)cc1 | i
Cc1cccc(NC(=S)NC(C)(C)C)c1 | i
CCC(C)c1ccc(NC(=S)NCc2ccccc2OC)cc1 (centres undefined) | i
CCCN1CCC(NC(=O)Nc2ccc(OC)c(OC)c2)CC1 | i
Cc1ccc(SCC(=O)N=C2NC(=O)CS2)cc1 | 2.0%
COc1ccccc1C1=NN(C(=S)Nc2ccccc2)C(c2ccco2)C1 (centres undefined) | 11.4%
COC(=O)c1cc(OC)c(OC)cc1-n1cnc2cc(OC)c(OC)cc2c1=O | i
O=C(O)CCN1C(=O)c2ccccc2C1=O | i
O=C(COc1ccc2ccccc2c1)c1ccc(Cl)cc1 | 16.5µg/mL*
Cc1c(C)c2cc(Cl)c(OCC(=O)OCc3ccccc3)cc2oc1=O | i
O=S(=O)(c1cccc(NC(=S)NCc2ccc(Cl)cc2)c1)N1CCOCC1 | i

Continued.
SMILES | Mtb growth
Cc1cc2oc(C(=O)Nc3nc4ccc(S(C)(=O)=O)cc4s3)c(C)c2cc1C | i
CCc1nc2c(sc3nc4c(cc32)COC(C)(C)C4)c(=O)n1Cc1ccccc1 | i
Cc1ccc(S(=O)(=O)c2nc(S(=O)(=O)Cc3ccc([N+](=O)[O-])cc3)sc2Cl)cc1 | 1.04µg/mL*
COC(=O)c1ccc(COc2ccc(-c3nnn(CC(=O)Nc4ccc(C(=O)OC)cc4)n3)cc2)cc1 | i
O=C(CCNC(=O)c1ccccc1)Oc1ccc([N+](=O)[O-])cc1 | i
O=C1C2CN3CCN(C2)CC1(c1ccccc1)C3 | 2.5%
CC(C)(C)C(=O)Nc1ccc(-c2nc3ccccc3o2)cc1 | i
Cc1cccc(NC(=S)NNC(=O)CC(C)O)c1C (centres undefined) | i
O=C(c1ccco1)N1CCN(c2ccc([N+](=O)[O-])c(N3CCCC3)c2)CC1 | 2.4%
CC(C)(C)c1cc(CCC(=O)O)cc(C(C)(C)C)c1O | i

4 entries from above, with each value named:
> COc1ccc(CCNC(=O)c2cc(Br)ccc2Cl)cc1
  Mtb growth = 4.1%

> COc1ccccc1N1CCN(C(=O)CN(C2CCCCC2)S(C)(=O)=O)CC1
  Mtb growth = i

> Cc1c(O)ccc(C(=O)CN2C(=O)c3ccccc3C2=O)c1O
  Mtb growth = ?

> CCCC(=O)Nc1nc2ccc(S(N)(=O)=O)cc2s1
  Mtb growth = i

(list continues)
SMILES | Mtb growth
CCOn1c(=O)c(-c2ccco2)[n+]([O-])c2ccccc21 | i
CCOc1ccccc1OCC(=O)Nc1cccc(Cl)c1C | 5.7%
CCCNC(=O)CN1C(=O)c2ccccc2S1(=O)=O | i
CCOc1ccccc1Oc1c(C(F)(F)F)oc2cc(OC(=O)c3ccccc3F)ccc2c1=O | 2.3%
Cc1cc(Oc2cc(C#N)c(C#N)cc2N2CCOCC2)cc(C)c1Cl | i
O=C(Nc1ccccc1OC(F)F)c1ccc(Br)o1 | i
Cn1c(=O)n(Cc2ccco2)c(=N)c2c3c(sc21)CCCC3 | 0.2%
O=C(NCc1cccc(Cl)c1)c1ccncc1 | i
COc1cccc(NS(=O)(=O)c2ccc(Oc3ccccc3OC)cc2)c1 | i
CCOc1ccc(NC(=O)CN(c2ccccc2)S(=O)(=O)c2ccc(Cl)cc2)cc1 | i
S=c1[nH]c2cc(Cl)ccc2n1C1CCCCC1 | i
C(=C\c1nc2ccccc2n1Cc1cccc2ccccc12)/c1ccco1 | ?
CC(=O)NC(Cc1ccccc1)C(=O)N1CCCC1C(=O)O (centres undefined) | i
CCCCNCCOCCOc1cccc(Br)c1 | i
CCOC(=O)C1CCN(C(=O)c2ccccc2NC(=O)c2ccc(Br)cc2)CC1 | i
COc1ccc(C2OC(=O)C3(CCCC3)C(=O)C2(C)C)cc1 (centres undefined) | i
O=C(Nc1nnc(/C=C/c2ccccc2)s1)c1cccc(Cl)c1 | i
O=C(Nc1ccc(-c2nc3ccccc3[nH]2)cc1)c1c(F)c(F)c(F)c(F)c1F | i
CC(C)=C1SC(N2CCN(c3ccc(C)c(Cl)c3)CC2)=NC1=O | i
COc1cccc(C(=O)N2CCN(C3CCN(Cc4ccccc4)CC3)CC2)c1 | i
CCc1ccc(NC(=O)c2sc3[nH]c(=O)c(C(=O)O)cc3c2N)cc1 | i
C=CCSc1nnc(NC(=O)CSc2nnnn2C)s1 | 0.5%
C=C(C)CSc1nc2ccc(I)cc2c(=O)n1-c1ccccc1OC | 5.6%
Cc1ccc(C(=O)Nc2ccc3oc(-c4cccc(F)c4)nc3c2)c(Cl)c1 | i
COc1ccc(-c2nn(-c3ccccc3)cc2CN(Cc2ccccc2)C(=O)c2ccco2)cc1 | 3.5%
Cc1oc(C)c(C(=O)Nc2cccc(C(=O)O)c2)c1C(=O)Nc1cccc(C(=O)O)c1 | i
CC1=C(c2ccccc2)[N+](=O)C2(CCCC2)N1[O-] | i
CCc1ccccc1NC(=O)Cc1cccs1 | i
CC(=O)NC(c1ccc(Br)cc1)c1ccc2cccnc2c1O (centres undefined) | i
Cc1cc(Cl)ccc1OCCCC(=O)Nc1ccc(Cl)cc1F | i

4 records drawn at random from those above, as already listed:
SMILES | Mtb growth
Cc1cc(Cl)c(OCCCOc2ncnc3ccccc23)c(Cl)c1 | i
Cc1ccc(-n2ncc3c(NCCCN4CCOCC4)ncnc32)c(C)c1 | i
S=c1[nH]c2cc(Cl)ccc2n1C1CCCCC1 | i
CC1CCN(c2ccccc2NC(=S)NC(=O)C(C)(C)C)CC1 | 35.1%

The listing continues.
SMILES | Mtb growth
Cc1cc(C)c(S(N)(=O)=O)c(C)c1-n1cnnn1 | i
OCc1ccc(OCc2ccc(Cl)c(Cl)c2)c(Br)c1 | 11.1%
COc1cc(S(=O)(=O)Nc2ccccc2C)ccc1NC(=O)c1ccc(C)cc1 | 8.8%
O=C(Nc1ccccc1I)C1CC(=O)N(c2ccc(F)cc2)C1 (centres undefined) | i
CCOc1cc(-c2cc(C(=O)O)c3ccccc3n2)ccc1O | 2.1%
COc1cccc(N(CC(=O)Nc2ccccc2F)S(C)(=O)=O)c1 | i
COc1ccccc1N1CCN(C(=S)Nc2ccc(F)cc2F)CC1 | i
CCOC(=O)c1cccc(NC(=O)Cc2ccc(C)cc2)c1 | i
CCC(=O)Nc1ccccc1C(=O)Nc1cccc(C)c1C | i
O=C(Cc1ccccc1)Nc1ccccc1C(=O)Nc1c(Cl)cccc1Cl | i
CCOC(=O)Nc1cccc(NC(=O)c2ccccc2F)c1 | i
COc1ccc(C2C(C(=O)O)CC(=O)N2C2CCCCC2)cc1 (centres undefined) | i
Cc1ccc(NC(=O)C2CC(=O)N(c3ccccc3F)C2)cc1Cl (centres undefined) | i
Cc1ccc(-n2c(C34CC5CC(CC(C5)C3)C4)n[nH]c2=S)cc1 | i
CCCC(C)C(=O)Nc1ncc(S(=O)(=O)c2ccc([N+](=O)[O-])cc2)s1 (centres undefined) | i
O=C(Cc1ccc(F)cc1)NCc1ccco1 | 1.4%
O=C(NCc1nc(-c2ccc(Cl)cc2)no1)c1ccc(Br)o1 | i
COc1ccc(CSCC(=O)Nc2cc(Cl)ccc2Oc2ccccc2)cc1 | 9.5%
O=C(c1cc2ccccc2oc1=O)N1CCN(c2ncccn2)CC1 | i
CCOC(=O)N1CCN(S(=O)(=O)c2ccc(C)c(C)c2)CC1 | i

Overlap with the part before: two compounds; new compounds follow.
SMILES | Mtb growth
O=C(c1cc2ccccc2oc1=O)N1CCN(c2ncccn2)CC1 | i
CCOC(=O)N1CCN(S(=O)(=O)c2ccc(C)c(C)c2)CC1 | i
O=C(COc1ccc2ccccc2c1Br)NC1CCCCC1 | ?
CC(=O)Oc1c(/C=C(\C#N)C(N)=O)[nH]c2ccccc12 | 5.98µg/mL*
Cc1cccc(-c2nc3sc(-c4ccccc4)cc3c(=O)o2)c1 | 20.6%
CC(=O)c1cccc(NC(=O)C2c3ccccc3Oc3ccccc32)c1 | 1.2%
O=C(Cn1ncc2ccccc2c1=O)NC(c1ccccc1)c1ccccc1 | i
CCc1cc(-c2[nH]ncc2Oc2ccc(Cl)cc2)c(O)cc1O | i
O=C(CCN1CCOCC1)Nc1ccc2c(c1)OCO2 | i
COC(=O)c1sc(NC(=S)NC(=O)c2ccc(OC)c(Br)c2)nc1C | 5.1%
CCN(CC)c1ccc(NC(=O)c2ccc(F)cc2)c(C)c1 | i
CN1CCN(NC(=S)NCCc2ccccc2)CC1 | i

Assay outcomes: PubChem, Southern Research Institute

Not all compounds are listed (hit frequency here may not be typical).
